KCNQ2 block: KCNQ2 potassium channel inhibitors, primary screen, cell-based, CHO-K1, FluxOR thallium flux, B-score (AID 2156); B-score at 10 µM; 310,000 tested, 1.1% active; O88943; 20 min; stronger effect = lower value; only compounds with negative scores are shown here; some inactives read as strong as hits;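 active = fluorescence ratio B-score at most minus 3 library SDs, with starting brightness B-score within 2 library SDs, cut at about -5.5 in these data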
Target sequence (O88943 whole entry, looked up): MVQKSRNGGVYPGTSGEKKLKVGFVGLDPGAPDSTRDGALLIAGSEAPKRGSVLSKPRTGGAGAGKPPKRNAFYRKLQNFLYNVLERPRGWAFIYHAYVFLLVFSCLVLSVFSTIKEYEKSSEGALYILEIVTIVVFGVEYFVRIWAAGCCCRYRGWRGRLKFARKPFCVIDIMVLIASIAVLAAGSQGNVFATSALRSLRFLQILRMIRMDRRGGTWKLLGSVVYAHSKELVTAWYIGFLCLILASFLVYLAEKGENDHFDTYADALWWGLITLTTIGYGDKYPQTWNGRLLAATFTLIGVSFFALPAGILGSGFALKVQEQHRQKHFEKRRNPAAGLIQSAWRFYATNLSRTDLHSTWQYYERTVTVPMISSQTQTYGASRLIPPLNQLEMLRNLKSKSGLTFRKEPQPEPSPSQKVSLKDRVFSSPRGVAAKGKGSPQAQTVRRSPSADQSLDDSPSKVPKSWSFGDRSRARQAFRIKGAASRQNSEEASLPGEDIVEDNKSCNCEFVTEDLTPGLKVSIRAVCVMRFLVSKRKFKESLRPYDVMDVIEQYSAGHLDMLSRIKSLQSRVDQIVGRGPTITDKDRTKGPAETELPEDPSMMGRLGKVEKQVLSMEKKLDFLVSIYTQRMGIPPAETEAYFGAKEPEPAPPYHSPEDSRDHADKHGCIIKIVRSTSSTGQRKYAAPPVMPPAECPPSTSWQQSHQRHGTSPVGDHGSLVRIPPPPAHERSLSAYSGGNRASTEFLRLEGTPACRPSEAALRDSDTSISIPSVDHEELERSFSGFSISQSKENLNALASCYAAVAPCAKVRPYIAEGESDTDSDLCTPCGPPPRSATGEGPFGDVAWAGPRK
KCNQ2 block baseline: further read-out of KCNQ2 block, marked with its call; B-score; measured here: initial fluorescence intensity artifact check;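 brightness before thallium and not channel activity; 0 = typical well and far values either way flag optical interference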
* marks the source's active call; other numbers are inactive results. Only part of the results is shown; the hit share may differ from the screen's.

Sample of the layout, 5 compounds:
Cc1cc2cc(CCNC(=O)c3cccc([N+](=O)[O-])c3)c(=O)[nH]c2cc1C was read as KCNQ2 block inactive and KCNQ2 block baseline 0.95.
`CCS(=O)(=O)N1CCN(c2ccc([N+](=O)[O-])c(NCc3ccccc3)c2)CC1` gave KCNQ2 block inactive and KCNQ2 block baseline 0.95.
For CC(=O)N1CCc2cc(S(=O)(=O)CCC(=O)NCc3cccs3)ccc21 the results were KCNQ2 block inactive and KCNQ2 block baseline 2.
For COc1ccccc1CNC(=O)[C@@H](NC(=O)C1CCN(C(=O)[C@@H]2CCCN2)CC1)C(C)C the results were KCNQ2 block inactive and KCNQ2 block baseline 1.6.
`Cc1cc(Nc2c(C#N)c(N)nn2C)ccc1F` gave KCNQ2 block inactive and KCNQ2 block baseline 0.79.

All compounds of this part, previewed entries included:
Cc1cc2cc(CCNC(=O)c3cccc([N+](=O)[O-])c3)c(=O)[nH]c2cc1C was read as KCNQ2 block inactive and KCNQ2 block baseline 0.95.
`CCS(=O)(=O)N1CCN(c2ccc([N+](=O)[O-])c(NCc3ccccc3)c2)CC1` gave KCNQ2 block inactive and KCNQ2 block baseline 0.95.
For CC(=O)N1CCc2cc(S(=O)(=O)CCC(=O)NCc3cccs3)ccc21 the results were KCNQ2 block inactive and KCNQ2 block baseline 2.
For COc1ccccc1CNC(=O)[C@@H](NC(=O)C1CCN(C(=O)[C@@H]2CCCN2)CC1)C(C)C the results were KCNQ2 block inactive and KCNQ2 block baseline 1.6.
`Cc1cc(Nc2c(C#N)c(N)nn2C)ccc1F` gave KCNQ2 block inactive and KCNQ2 block baseline 0.79.
Screening CN(Cc1ccccc1C#N)S(=O)(=O)c1cccs1 returned KCNQ2 block inactive and KCNQ2 block baseline 0.12.
Screening N[C@@H](Cc1ccc(O)c(I)c1)C(=O)O returned KCNQ2 block inactive and KCNQ2 block baseline -1.8.
`CC(C)[C@H](NC(=O)C1CCN(S(=O)(=O)c2ccc(F)cc2)CC1)C(=O)N1CCCC1` gave KCNQ2 block inactive and KCNQ2 block baseline 0.94.
For CSc1ccc(C(=O)C2CCCN(C(=O)c3ccc4c(c3)no[n+]4[O-])C2)cc1 (stereo not drawn) the results were KCNQ2 block inactive and KCNQ2 block baseline 0.01.
Screening COc1ccc(-c2noc(CN(C)C(=O)c3ccc4c(c3)OCO4)n2)cc1 returned KCNQ2 block inactive and KCNQ2 block baseline -1.6.
CCCc1cc(=O)c2c(O)ccc(OC)c2o1 was read as KCNQ2 block inactive and KCNQ2 block baseline 1.2.
For N=C1C(c2ccccc2)=C(O)CN1c1ccc2c(c1)OCO2 the results were KCNQ2 block inactive and KCNQ2 block baseline 1.4.
Screening CN(C)/C=C(/C(=O)c1ccc(Cl)c(Cl)c1)c1nnnn1-c1ccccc1 returned KCNQ2 block inactive and KCNQ2 block baseline -0.2.
Screening COc1ccc(NC(=O)CC(c2ccc(F)cc2)c2ccc(OC(C)C)cc2)cc1 (stereo not drawn) returned KCNQ2 block inactive and KCNQ2 block baseline -0.16.
COCCn1c(N)c(C(=O)OCc2ccccc2)c2nc3ccccc3nc21 was read as KCNQ2 block inactive and KCNQ2 block baseline -2.4.
CCCCOCP(=O)(CCCC)COCCCC was read as KCNQ2 block inactive and KCNQ2 block baseline -1.5.
Screening CN(CC(=O)O/N=C(\N)c1cccc([N+](=O)[O-])c1)S(=O)(=O)c1ccccc1 returned KCNQ2 block inactive and KCNQ2 block baseline 0.61.
`CCc1ccc(C2CC(c3ccc(F)cc3)Nc3nc(N)nn32)cc1` (stereo not drawn) gave KCNQ2 block inactive and KCNQ2 block baseline 0.77.
For CCOC(=O)C1CCN(S(=O)(=O)c2cc(Br)cc3c2N(C(=O)C2CC2)CC3)CC1 the results were KCNQ2 block inactive and KCNQ2 block baseline -3.4.
Screening O=C(NCc1ccc(F)cc1)C1CCN(c2cnccn2)CC1 returned KCNQ2 block inactive and KCNQ2 block baseline 2.1.
Screening Cc1c([N+](=O)[O-])c(N)nn1C returned KCNQ2 block inactive and KCNQ2 block baseline 0.84.
Screening Cc1ccc(NCc2nnc(SCC(=O)Nc3ncc(C)s3)n2Cc2ccco2)c(C)c1 returned KCNQ2 block inactive and KCNQ2 block baseline -0.94.
For CN(C)CC#CCC(O)(c1ccccc1)c1ccccc1 the results were KCNQ2 block inactive and KCNQ2 block baseline -1.9.
Screening Cn1c(=O)[nH]c(=O)c2c1[nH]c(=S)n2Cc1ccccc1 returned KCNQ2 block inactive and KCNQ2 block baseline -1.9.
Screening O=C(CSc1nc2ccccc2nc1N1CCCCC1)Nc1ccc(F)cc1 returned KCNQ2 block inactive and KCNQ2 block baseline -0.11.
For COc1cc(/C=N/Nc2nc(N3CCCC3)nc(N3CCCC3)n2)ccc1OCc1ccccc1F the results were KCNQ2 block inactive and KCNQ2 block baseline -1.
Screening Cc1ccc2nc(C3CCN(S(=O)(=O)c4ccc5ccccc5c4)CC3)[nH]c2c1 returned KCNQ2 block inactive and KCNQ2 block baseline 1.2.
Screening Nc1nc(SCc2nc(-c3ccccc3)no2)[nH]c(=O)c1-c1ccccc1 returned KCNQ2 block inactive and KCNQ2 block baseline 1.3.
CC(C)CNC(=O)C1CCN(c2ccc(S(=O)(=O)N3CCOCC3)cc2Cl)CC1 was read as KCNQ2 block inactive and KCNQ2 block baseline 0.51.
`Cc1ccc(-c2cc(C(=O)N3CCN(c4ccccc4O)CC3)c3ccccc3n2)cc1` gave KCNQ2 block inactive and KCNQ2 block baseline -0.43.
Nc1scn[n+]1Cc1cccc2cccnc12 was read as KCNQ2 block inactive and KCNQ2 block baseline -0.04.
Screening COc1ccc(-c2c/c(=N\c3nc(-c4ccccc4)c(C)s3)c3ccccc3o2)cc1O returned KCNQ2 block inactive and KCNQ2 block baseline -0.64.
Screening Cn1cccc1-c1nc2ccccc2[nH]1 returned KCNQ2 block inactive and KCNQ2 block baseline 0.04.
`COc1cc(C2C(C#N)=C(N)Oc3cc(C)n(CCN4CCOCC4)c(=O)c32)cc(OC)c1OC` (stereo not drawn) gave KCNQ2 block inactive and KCNQ2 block baseline -0.32.
For N#Cc1ccsc1NC(=O)CN1CCN(S(=O)(=O)c2ccccc2C(F)(F)F)CC1 the results were KCNQ2 block inactive and KCNQ2 block baseline -0.15.
CCOC(=O)c1cc(-c2ccco2)nc2c1c(C)nn2-c1cccc(Cl)c1 was read as KCNQ2 block inactive and KCNQ2 block baseline -0.52.

Structures from the list above containing a nitro group on carbon, in the order listed:
Cc1cc2cc(CCNC(=O)c3cccc([N+](=O)[O-])c3)c(=O)[nH]c2cc1C was read as KCNQ2 block inactive and KCNQ2 block baseline 0.95.
`CCS(=O)(=O)N1CCN(c2ccc([N+](=O)[O-])c(NCc3ccccc3)c2)CC1` gave KCNQ2 block inactive and KCNQ2 block baseline 0.95.
Screening CN(CC(=O)O/N=C(\N)c1cccc([N+](=O)[O-])c1)S(=O)(=O)c1ccccc1 returned KCNQ2 block inactive and KCNQ2 block baseline 0.61.
Screening Cc1c([N+](=O)[O-])c(N)nn1C returned KCNQ2 block inactive and KCNQ2 block baseline 0.84.

Next records
Screening Cc1cccc(/C=N/NC(=O)CN2CCCCCCC2)c1 returned KCNQ2 block inactive and KCNQ2 block baseline -0.25.
For O=C(Nc1c(Cl)cc(Cl)cc1C(=O)NCC1CCCO1)c1ccco1 (stereo not drawn) the results were KCNQ2 block inactive and KCNQ2 block baseline -1.3.
Screening NC(=O)c1c(NC(=O)C2c3ccccc3Oc3ccccc32)sc2c1CCCCC2 returned KCNQ2 block inactive and KCNQ2 block baseline -1.6.
COc1ccc(C2CC2/C(C)=N/OC(=O)c2ccc(F)cc2)cc1 (stereo not drawn) was read as KCNQ2 block inactive and KCNQ2 block baseline -0.97.
CCC(C)OC(=O)c1cc(C)nc2c(Br)cc(Br)cc12 (stereo not drawn) was read as KCNQ2 block inactive and KCNQ2 block baseline 0.01.
`O=C(N1CCOCC1)N1CCc2ccccc21` gave KCNQ2 block inactive and KCNQ2 block baseline 1.6.
Screening COc1cc2c(cc1NC(=O)COC(=O)[C@@H](NC(=O)c1ccccc1F)C(C)C)oc1ccccc12 returned KCNQ2 block inactive and KCNQ2 block baseline -0.34.
COc1ccccc1C(=O)NC(CCSC)C(=O)NCCCSc1ccccc1 (stereo not drawn) was read as KCNQ2 block inactive and KCNQ2 block baseline 0.31.
O=C(Nc1ccc([N+](=O)[O-])cc1)/C(=C/c1cccc([N+](=O)[O-])c1)NC(=O)C1CCCCC1 was read as KCNQ2 block inactive and KCNQ2 block baseline -1.4.
`O=C(CCc1nc2ccccc2s1)OCC(=O)N1CCN(C(=O)c2ccco2)CC1` gave KCNQ2 block inactive and KCNQ2 block baseline -0.59.
`Cc1cccc(N=C2N=C(N)c3ccccc32)c1` gave KCNQ2 block inactive and KCNQ2 block baseline 0.88.
Screening CC(=O)Nc1ccc(C(=O)COC(=O)C2CC3CCCC(C2)C3=O)cc1 (stereo not drawn) returned KCNQ2 block inactive and KCNQ2 block baseline -0.43.

In the list so far, two have bromine:
For CCOC(=O)C1CCN(S(=O)(=O)c2cc(Br)cc3c2N(C(=O)C2CC2)CC3)CC1 the results were KCNQ2 block inactive and KCNQ2 block baseline -3.4.
CCC(C)OC(=O)c1cc(C)nc2c(Br)cc(Br)cc12 (stereo not drawn) was read as KCNQ2 block inactive and KCNQ2 block baseline 0.01.

New compounds follow:
For CCOC(=O)C1(CC2CCCCO2)CCN(C(=O)Nc2ccccc2CC)CC1 (stereo not drawn) the results were KCNQ2 block inactive and KCNQ2 block baseline -0.02.
For CC(C)(C)c1ccc(OCCC(=O)NC2=NCCS2)cc1 the results were KCNQ2 block inactive and KCNQ2 block baseline 2.2.
`Cc1ccccc1NC(=O)CNc1ccc(Cl)c(C(F)(F)F)c1` gave KCNQ2 block inactive and KCNQ2 block baseline -0.92.
CCCCCCOc1ccc(/C(C)=N/NC2=NCCN2)cc1 was read as KCNQ2 block inactive and KCNQ2 block baseline -2.2.
Screening Cc1cccc(-n2nc3c(c2NC(=O)c2ccc4c(c2)OCO4)CS(=O)(=O)C3)c1C returned KCNQ2 block inactive and KCNQ2 block baseline -0.22.
Screening Cc1ccccc1-c1nc(S(=O)(=O)c2ccc(Cl)cc2)c(NCCN2CCOCC2)o1 returned KCNQ2 block inactive and KCNQ2 block baseline -0.86.
For CCn1cnc2cc(NCc3ccccc3Cl)ccc21 the results were KCNQ2 block inactive and KCNQ2 block baseline 1.2.
`COc1ccccc1NC(=O)Cn1ccn(-c2cccc3ccccc23)c(=O)c1=O` gave KCNQ2 block inactive and KCNQ2 block baseline -0.14.
O=C(O)c1csc(-c2ccccc2)n1 was read as KCNQ2 block inactive and KCNQ2 block baseline 0.12.
`CCc1cc2c(CN3CCN(C)CC3)cc(=O)oc2cc1O` gave KCNQ2 block inactive and KCNQ2 block baseline 1.1.
For COc1ccc(NC(=O)C(NC(=O)Cc2cccs2)c2ccc(C)cc2)cc1 (stereo not drawn) the results were KCNQ2 block inactive and KCNQ2 block baseline 1.7.
Screening CC(C)(C)n1nnnc1C(c1ccc(F)cc1)N1CCN(Cc2ccc3c(c2)OCO3)CC1 (stereo not drawn) returned KCNQ2 block inactive and KCNQ2 block baseline 1.4.
`Cc1cccc(C(=O)Nc2ccccc2C(=O)OCc2c(C)noc2C)c1` gave KCNQ2 block inactive and KCNQ2 block baseline -0.03.
For CCOC(=O)C1CCCN(c2c(Nc3ccc(C)c(C)c3)c(=O)c2=O)C1 (stereo not drawn) the results were KCNQ2 block inactive and KCNQ2 block baseline -0.18.
For O=c1[nH]cn[nH]1 the results were KCNQ2 block inactive and KCNQ2 block baseline 1.3.
`COc1ccc(C(=O)NNC(=O)CSc2nnnn2-c2cc(OC)cc(OC)c2)cc1` gave KCNQ2 block inactive and KCNQ2 block baseline 0.03.
CCC(C)c1ccc(N(C(=O)c2ccco2)C(C(=O)NC2CCCC2)c2cccnc2)cc1 (stereo not drawn) was read as KCNQ2 block inactive and KCNQ2 block baseline -0.33.
For Cc1cc(C)c(NC(=O)c2ccccc2N(C)S(C)(=O)=O)c(C)c1 the results were KCNQ2 block inactive and KCNQ2 block baseline -0.38.
For COc1cc(S(=O)(=O)Nc2ccc(C)cc2)ccc1N=Cc1c(C)[nH]n(-c2ccc(C)cc2)c1=O the results were KCNQ2 block inactive and KCNQ2 block baseline -0.19.
CCOC(=O)CN1C(=O)S/C(=C/c2cc(C)n(C)c2C)C1=O was read as KCNQ2 block inactive and KCNQ2 block baseline 1.5.
COc1cc(/C=C(\C#N)C(=O)Nc2ccccc2)ccc1OCCN1CCOCC1 was read as KCNQ2 block inactive and KCNQ2 block baseline -0.05.
`CCOC(=O)c1c(NC(=O)CC2Sc3ccc(C(F)(F)F)cc3NC2=O)sc(C)c1C` (stereo not drawn) gave KCNQ2 block inactive and KCNQ2 block baseline -0.3.
Screening FCCCOc1ccc(/C=N/OCc2ccc(Cl)cc2Cl)cc1 returned KCNQ2 block inactive and KCNQ2 block baseline 0.41.
Screening N[C@@H](Cc1ccccc1)c1nnc(SCc2ccccc2F)o1 returned KCNQ2 block inactive and KCNQ2 block baseline 0.27.
`Nn1c(SCC(=O)N2CCc3ccccc3C2)nnc1-c1cccs1` gave KCNQ2 block inactive and KCNQ2 block baseline 0.74.
Screening O=C(c1cc2ccccc2c(=O)o1)N1CCCC1 returned KCNQ2 block inactive and KCNQ2 block baseline -0.62.
For O=C(O)c1cnn2cc(-c3[nH]ncc3[N+](=O)[O-])cnc12 the results were KCNQ2 block inactive and KCNQ2 block baseline -1.8.
`Fc1ccc(C2c3cccn3CCN2C(=S)Nc2cccc(F)c2)cc1` (stereo not drawn) gave KCNQ2 block inactive and KCNQ2 block baseline -0.23.
For CCOc1cc(C=O)ccc1OCCSc1ccc(Cl)cc1 the results were KCNQ2 block inactive and KCNQ2 block baseline -0.01.
For CC(=O)OC1CC(n2ccc(NC(=O)c3ccccc3)nc2=O)OC1CO (stereo not drawn) the results were KCNQ2 block inactive and KCNQ2 block baseline 0.66.
Cc1ccc(S(=O)(=O)N2CCN=C2SCc2ccc(Cl)c(Cl)c2)cc1 was read as KCNQ2 block inactive and KCNQ2 block baseline -0.2.
For Cc1ccnc(NS(=O)(=O)c2ccc(NC(=O)C3CC3)cc2)n1 the results were KCNQ2 block inactive and KCNQ2 block baseline 0.51.

Bioassay records as filed in PubChem BioAssay.
